SARS PLpro yeast: qHTS of Yeast-based Assay for SARS-CoV PLP. S. cerevisiae expressing SARS-CoV PLpro, growth rescue; control for the full effect not named in the record. Potency, µM (titrated, usually from 32.9 µM), for the others: at the highest dose activity, positive = growth rescue. 330,000 tested, 0.19% active. AID 485353, 2010; note: 0% is about no effect; nearly all actives have a fitted effect of over 55% in size; growth read by luminescence after 48 h
Cruzain inh Det: qHTS Assay for Promiscuous and Specific Inhibitors of Cruzain (with detergent) | Cruzipain (Trypanosoma cruzi), P25779 | purified cruzain, Z-FR-AMC fluorescence, 0.01% Triton | Potency, µM, for inactives: max response, negative = inhibition, hits mostly inhibitors | 200,000 tested, 0.43% active; active = well fitted curve in the direction sought with a large enough effect; inconclusive = small, poorly fitted or top-dose-only effect, or another doubt; inactive = no such curve, though single readings can be large; an effect the other way counts as inactive or inconclusive;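 note: plate controls were neutral wells for no effect and buffer without enzyme for full effect; nearly all actives have a fitted effect of over 40% in size; top concentration of the series not given in the record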
Target sequence (P25779 123-467 limits assumed): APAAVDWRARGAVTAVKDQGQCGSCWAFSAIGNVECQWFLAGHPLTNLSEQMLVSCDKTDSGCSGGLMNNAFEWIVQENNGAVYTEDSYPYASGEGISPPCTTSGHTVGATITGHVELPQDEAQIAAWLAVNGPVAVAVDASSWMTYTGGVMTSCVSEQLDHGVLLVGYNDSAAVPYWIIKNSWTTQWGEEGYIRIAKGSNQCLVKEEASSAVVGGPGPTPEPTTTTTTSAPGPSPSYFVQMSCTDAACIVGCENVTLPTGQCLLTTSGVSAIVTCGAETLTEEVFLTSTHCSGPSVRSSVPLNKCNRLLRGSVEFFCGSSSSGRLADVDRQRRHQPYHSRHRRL
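Detergent-containing run (0.01% Triton X-100) in acetate buffer pH 5.5 with 5 mM DTT: enzyme at 1.5 nM final, 15 min compound preincubation at room temperature, then 2 uM Z-FR-AMC substrate. Activity taken as 60 s fluorescence increase at 360/450 nm.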
Cruzain noTriton: qHTS Assay for Promiscuous and Specific Inhibitors of Cruzain (without detergent). 200,000 tested, 2.3% active. Potency, µM, for inactives: max response, negative = inhibition, usual class: inhibitors. AID 1476, 2009. Cruzipain (Trypanosoma cruzi), P25779. purified cruzain, Z-FR-AMC fluorescence, no detergent; active = well fitted curve in the direction sought with a large enough effect; inconclusive = small, poorly fitted or top-dose-only effect, or another doubt; inactive = no such curve, though single readings can be large; an effect the other way counts as inactive or inconclusive;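 note: plate controls were enzyme without inhibitor for no effect and buffer without enzyme for full effect; nearly all actives have a fitted effect of over 40% in size; top concentration of the series not given in the record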
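Purified cruzain at 1.5 nM, pre-incubated 15 min with compound at room temperature in 100 mM sodium acetate pH 5.5, 5 mM DTT, 0.00005% Triton X-100. Reaction started with 2 uM Z-FR-AMC; AMC fluorescence increase over 60 s gives rate.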
2A StopGo: High Throughput Screening for Foot and Mouth Disease Virus Antivirals; AID 1159524, 2015; 410,000 tested, 1.2% active; Potency, µM (highest dose often 57.9 µM), without a hit: at the top dose signal change, negative = less light; human cells with a luciferase reporter of 2A StopGo recoding; control for the full effect not named in the record; active = well fitted falling curve with a large enough effect; inconclusive = small, poorly fitted or top-dose-only effect; inactive = no such curve, though single readings can be large or run the other way; tested in HEK293T cells; note: % is set by controls: 0 for no effect and ±100 for the full control effect; nearly all actives have a fitted effect of over 45% in size; luciferase light after 4 h
RE007 growth inh: qHTS Assay for Inhibitors of the HIV-1 protein Vpr; Potency, µM (series often up to 92.2 µM), without a hit: at the highest dose activity change, negative = less growth; 360,000 tested, 0.21% active; S. pombe RE007 Vpr strain, BacTiter-Glo ATP luminescence, 24 h; control for the full effect not named in the record; active = well fitted falling curve with a large enough effect; inconclusive = small, poorly fitted or top-dose-only effect; inactive = no such curve, though single readings can be large or run the other way;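 note: % is set by controls: 0 for no effect and ±100 for the full control effect; nearly all actives have a fitted effect of over 50% in size; the assay follows cell death caused by Vpr and the record does not say whether a fall means rescue or toxicity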
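Fission yeast RE007 carrying one integrated HIV-1 vpr copy, seeded at OD 0.01 in PMG+AL medium with 23 nL pinned compound. Grown 24 h at 30 degrees; viability read by BacTiter-Glo luminescence after 5 min.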
NS1 function inh: qHTS Assay for Inhibitors of Influenza NS1 Protein Function. S. cerevisiae slowed by influenza A NS1, growth recovery by OD600. Potency, µM (doses to about 46.1 µM), without a hit: at the highest dose activity, positive = more growth. 270,000 tested, 0.4% active. AID 2326, 2010; note: actives are rising curves; nearly all actives have a fitted effect of over 50% in size
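Compounds were scored for reversing the slow growth caused by influenza A NS1 in S. cerevisiae, measured by optical density at 600 nm. Assay medium contained 2% galactose at pH 6.0; NS1-free yeast of the same strain were the positive control.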
Marburg entry inh: qHTS for inhibitors of binding or entry into cells for Marburg Virus. 300,000 tested, 1.8% active. Potency, µM (series often up to 37.8 µM), for inactives: top-dose activity change, negative = inhibition, hits mostly inhibitors. Marburg virus pseudotyped entry inhibition, cell reporter; control for the full effect not named in the record; about a third of the inactives were read at about 46 µM; active = well fitted inhibition curve with a large enough effect; inconclusive = small, poorly fitted or top-dose-only effect, or effect the other way; inactive = flat fitted curve, though single readings scatter; tested in HEK293 cells; about a fifth of its hits are not listed in these tables; note: % is set by controls: 0 for no effect and ±100 for the full control effect; luciferase read-out
Lassa entry inh: qHTS for Inhibitors of binding or entry into cells for Lassa Virus | Lassa virus pseudotype entry inhibition, cell reporter; control for the full effect not named in the record | Potency, µM (highest dose often 37.9 µM), without a hit: top-dose activity change, negative = inhibition, hits mostly inhibitors | 300,000 tested, 1.2% active | AID 540256, 2011; active means well fitted inhibition curve with a large enough effect; inconclusive means small, poorly fitted or top-dose-only effect, or effect the other way; inactive means flat fitted curve, though single readings scatter; tested in HEK293 cells; note: % is set by controls: 0 for no effect and ±100 for the full control effect; nearly all actives have a fitted effect of over 50% in size; luciferase read-out
Starred values were filed as active, the others as inactive; ? = inconclusive; . = no result given; & = joins results of further samples; [ ] = another dose, or the depositor's remark. Unless noted, calls come from the whole dose curve; as a rule, active means well fitted rising curve with a large enough effect; inconclusive means small, poorly fitted or top-dose-only effect; inactive means no such curve, though single readings can be large or run the other way. Potency is the fitted concentration of half-maximal effect.

Values run as follows: RE007 growth inh, NS1 function inh, SARS PLpro yeast, 2A StopGo, Cruzain noTriton, Marburg entry inh, Lassa entry inh, Cruzain inh Det
Cc1cc(=O)nc2c3ccccc3n(C(C)C(=O)Nc3cc(F)ccc3F)n12 (stereo unspecified)
    19.3%, -3.9%, -2.0%, -16.7%, ., ., ., .
O=C(Nc1cccc(-c2cnc3ccccc3n2)c1)C1CC(=O)N(c2ccccc2)C1 (stereo unspecified)
    -9.2%, 7.6%, 6.7%, ?, ., ?, ?, .
O=C(Nc1cccc(C(=O)N2CCOCC2)c1)c1ccccc1Cl
    79.3%, 8.5%, 3.7%, -8.8%, ., -0.3%, 0.3%, .
Cc1cc(C)cc(NC(=O)C2CCN(c3nnc(-n4c(C)ccc4C)s3)CC2)c1
    ., ., ., -23.8%, 8.4%, -13.7%[46.1 µM], -0.8%[46.1 µM], -3.9%
Cc1c(NC(=O)COc2ccc3ccc(=O)oc3c2)c(=O)n(-c2ccccc2)n1C
    0.6%, ., -8.9%, -12.1%, ., -1.9%[46.1 µM], -1.4%, .
CCS(=O)(=O)N1CCN(C(=O)C(c2ccccc2)c2ccccc2)CC1
    13.4%[3.69 µM], 6.2%, 2.4%, -14.5%, 5.4%, 1.9%, 14.9%, 3.9%
C=CCn1cc(-c2ccc(Cl)cc2)cc(C#N)c1=O
    9.0%, -3.8%, 0.5%, -26.2%, 1.6%, -9.1%, -5.4%, 1.5%
CN(C)CCN(Cc1ccccc1)S(=O)(=O)c1ccc(-c2cc(C(F)(F)F)on2)s1
    ., ., ., -22.5%, -5.9%, ., -6.9%[46.1 µM], 0.6%
Cc1ccc(NC(=O)CCN2C(=O)c3ccccc3C2=O)c(C)c1
    -13.5%, -3.9%, -1.8%, 18.5%, ., ?, ?, .
FC(F)(F)c1cc(-c2ccco2)nc(-n2cnc3ccccc32)n1
    3.2%, 19.2%, -2.2%, -9.6%, -8.0%, -9.4%, -19.4%, -8.6%
CC(C)(C)C(=O)Nc1nnc(CCc2ccccc2)s1
    11.8%, -9.7%, 0.8%, 53.0%[activator], ., ?, -26.2%, .
Cc1ccc(Nc2c(-c3cccs3)nc3nc(C)cc(C)n23)cc1
    ., ., ., 21.0%, ?, 28.2%[46.1 µM], ?, -11.5%
Cn1cc(S(=O)(=O)N2CCC3(CC2)OCCO3)c(=O)n(C)c1=O
    -5.7%, 8.5%, 2.1%, -20.3%, ., ., ., .
COc1ccc2cc3cc(C(=O)N4CCN(c5ccccc5F)CC4)oc3nc2c1
    ., ., ., -16.7%, -18.8%, 3.0%[46.1 µM], -16.6%[46.1 µM], -2.9%
CC1CCN(S(=O)(=O)c2ccc3c(c2)N(CC(=O)NCCCN2CC(C)CC(C)C2)C(=O)CS3)CC1 (stereo unspecified)
    6.1%, -5.2%, -2.5%, -14.0%, ., ., ., .
Cc1onc(-c2c(F)cccc2Cl)c1C(=O)c1ccc(F)cc1
    -15.7%, -2.6%, -0.3%, -15.0%, ., -20.7%, ?, .
O=C(NC1=NCCS1)C1CC(=O)N(c2ccccc2)C1 (stereo unspecified)
    -14.2%, -2.3%, 2.8%, 7.9%, 1.1%, 5.4%, -1.6%, 4.3%
O=C(NCCN1CCN(C(=O)NC2CCCCC2)CC1)NC1CCCCC1
    1.0%, -7.1%, -2.0%, -5.2%, 0.2%, -1.4%, 7.2%, -5.5%
Cc1ccc(C)c(-n2c(SCC(=O)N3CCCC3)nnc2-c2ccccn2)c1
    6.6%, -3.5%, 2.0%, -0.7%, 7.2%, 1.2%[46.1 µM], -9.8%, 2.8%
O=C(Oc1ccc2ccc(=O)oc2c1)C1CCCCC1
    -13.5%, 5.9%, -1.7%, 0.0%, -4.4%, -1.9%, 9.7%, -2.1%
COc1ccccc1OCCSc1nc(N)cc(N)n1
    1.3%, 12.4%, -9.2%, 66.4%[activator], 7.6%, ?, ?, 1.5%
O=C(CSC1=Nc2ccccc2C2=NC(CCC(=O)NC3CCCCC3)C(=O)N12)Nc1cccc(C(F)(F)F)c1 (stereo unspecified)
    ., ., ., -26.6%, -1.4%, 3.2%[46.1 µM], ?, -4.9%
CCn1c(SCC(=O)NNC(=O)c2ccco2)nnc1-c1ccco1
    30.6%, ., 0.3%, 11.5%, ., ?, 2.0%, .
CC1(C)Cc2ccccc2-c2nnc(-c3cccnc3)n21
    33.2%, -2.3%, 1.7%, -8.6%, 2.7%, ?, 27.3%, 10.8%
Cc1cc(C)c(OCC(=O)N(Cc2cccc(F)c2)Cc2ccco2)c(C)c1
    ., ., ., -19.6%, -12.3%, ?, -12.1%[46.1 µM], -8.9%
O=C(CCN1C(=O)S/C(=C\c2ccccc2)C1=O)N1CCCCC1
    -6.4%, -2.7%, -0.6%, 0.0%, ., ?, 4.0%[46.1 µM], .
CC(=O)Nc1cc2c3c(cccc3c1)-c1ccccc1-2
    -13.7%, ., ., 78.6%[activator], ., -4.9%, 2.1%, .
Cc1cccc(NC(=S)NNC(=O)c2csc(C(C)C)c2)c1
    8.4%, -9.7%, 25.4%, 50.4%[activator], -14.4%, ?, 16.3%, -5.7%
Cc1ccc(NC(=O)c2cc3ccccc3o2)cc1Cl
    -4.9%, -57.3%, -3.5%, 36.5%[activator], ., -2.5%, -28.6%, .
O=C(c1cccs1)N(C(=O)c1cccs1)c1ccc(Br)cn1
    ?, -127.2%, -32.3%, -20.6%, 0.9%, ?, ?, -8.2%
COc1cc(NC(=O)C/C(C)=N/NC(=O)Cc2ccc(Cl)cc2)c(OC)cc1Cl
    -18.4%, 6.2%, 0.0%, ?, ?, -42.7%, -24.8%, -4.4%
COc1ccccc1S(=O)Cc1ccc(C(=O)O)o1 (stereo unspecified)
    -3.3%, ?, 2.0%, -16.0%, 8.6%, 3.7%, 10.1%, 2.5%
CCn1cc([N+](=O)[O-])c(=O)c2cc(F)c(N3CCOCC3)cc21
    -5.9%, 5.5%, 0.5%, -18.4%, ., ., ., .
NC(=O)C1=NOC(CNc2ncc(C(F)(F)F)cc2Cl)C1 (stereo unspecified)
    0.6%, 6.4%, 1.2%, 41.7%[activator], -1.5%, ?, ?, 2.5%
Cc1ccc(NC(=O)CCc2c(C)nn(-c3ccc(N4CCOCC4)nn3)c2C)cc1C
    -15.8%, -13.9%, 8.9%, 8.4%, ., 5.2%[46.1 µM], 17.9%[46.1 µM], .
CCOc1ccc(NC(=O)Nc2cccc(C)n2)cc1
    -11.2%, -6.7%, 9.9%, 22.7%&46.7%, ?, ?, 0.5%&0.3%[46.1 µM], -0.7%
COc1ccc(Cn2nnnc2C(C(C)C)N2CCc3ccccc32)cc1 (stereo unspecified)
    -17.2%, -2.6%, ., ., 0.6%, -25.6%, 1.5%, 0.7%
Nc1cccc(-n2nncc2-c2ccccc2)c1
    -10.7%, -2.4%, 0.6%, -6.1%, -8.3%, 0.4%, 2.1%, -1.1%
COc1ccc(NC(=O)CN2CCN(c3c(C)cccc3C)CC2)cc1
    -9.7%, -35.5%, -0.9%, ?, ., ?, 5.1%[46.1 µM], .
O=S(=O)(c1ccccc1)c1nc(-c2ccc(F)cc2)oc1N1CCOCC1
    2.2%, -1.8%, -2.6%, -3.8%&1.0%, -7.6%, -7.4%&2.4%[46.1 µM], ?, -11.2%
CC1Cc2ccccc2N1Cc1cc(=O)c(OCC(=O)NCCc2ccccc2)co1 (stereo unspecified)
    12.4%, ., -2.7%, -23.0%, ., ?, ?, .
COc1ccc(N(CN2C(=O)C3C4C=CC(C4)C3C2=O)C(=O)c2ccco2)cc1 (stereo unspecified)
    3.5%, -14.0%, -11.9%, -10.9%, 4.2%, 4.8%, 10.0%, -3.4%
CCN(CC)CCNC(=O)C(Cl)=C1C(Cl)=C(Cl)C(Cl)=C1Cl
    9.1%, ., ., 22.4µM*, ., ?, ?, .
COc1cc(C(=O)OCC(=O)NC(=O)c2cccn2C)ccc1OC(F)F
    ?, ., -1.2%, -18.8%, ., 12.8%[46.1 µM], 1.3%[46.1 µM], .
C/C(=N\O)C(=O)NCCN(C)C
    4.1%, -3.2%, 1.0%, -2.0%, 3.3%, -14.3%, -0.1%, -2.9%
O=C(/C=C/c1ccccc1)NC(=S)Nc1ccccc1
    -1.3%, -13.4%, 8.0%, 20.0%, ., 8.5%[46.1 µM], -19.8%[46.1 µM], .
O=C(Cc1ccccc1)NCC(=O)OCC(=O)c1cccs1
    -15.3%, -3.1%, 2.3%, ., -24.5%, 18.8%, -20.7%, -27.4%
O=C(C1CCCCC1)N1CCN=C1SCc1cccnc1
    -6.7%, 0.5%, -2.7%, -13.9%, -3.4%, ., ., 5.6%
CCOc1ccc(Oc2c(/C=N/NC(N)=O)c(C)nn2-c2ccccc2)cc1
    15.2%, -10.5%, 0.2%, -18.9%, 2.7%, ?, -16.7%[46.1 µM], -9.7%
Cc1cc(C(F)F)n2ncc(C(=O)N3CCC(C(N)=O)CC3)c2n1
    3.3%, -6.9%, 16.9%, 0.4%, -2.9%, 25.8%, 8.6%, 8.3%
O=C(Nc1ccc2c(c1)OCCO2)C1CC(O)CN1C(=O)Nc1ccccc1 (stereo unspecified)
    12.9%, 9.0%, 1.8%, -1.8%, ., -5.0%[46.1 µM], 4.4%, .
